Screening data deposited in PubChem by National Center for Advancing Translational Sciences (NCATS).
SmPrx2 inh – Schistosoma Mansoni Peroxiredoxins (Prx2). Potency, µM. Schistosoma mansoni peroxiredoxin 2 (Prx2). AID 448, 2006. S. mansoni Prx2 activity coupled to TGR/GSH (TGR is thioredoxin glutathione reductase), NADPH fluorescence loss, qHTS; some inactives read as strong as hits. 65,000 compounds, 0.07% hits; active means full or partial inhibition curve with a strong effect at the top dose; inconclusive means weaker partial or single-point curve; inactive means no accepted curve; further: series up to 57 µM; many of its hits are not listed in these tables
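Prx2 inhibition was measured as reduced NADPH consumption when electrons flowed from NADPH through TGR and glutathione to Prx2 and H2O2. Plates were read kinetically over 8 min; enzyme reagents were held at 4 deg C during dispensing.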
Anthrax LT inh – qHTS Assay for Anthrax Lethal Toxin Internalization; Cells, anthrax lethal toxin internalization, FRET ratio (460/530); Potency, µM (doses to about 40 µM), without a hit: at the highest dose activity change, negative = inhibition, usual class: inhibitors; 70,000 compounds, 0.67% hits; active = well fitted falling ratio curve with the 530 nm signal flat; inconclusive = other ratio curves, or a change in one channel alone; inactive = flat curves in the ratio and both channels; the % refers to the ratio; further: on the % scale 0 is the no-effect control and ±100 the full control effect; nearly all actives have a fitted effect of over 50% in size; tested in ME-180 cells; beta-lactamase reporter
Starred values were filed as active, the others as inactive; [ ] = dose if it differs, or a comment. Potency means the concentration at half of the fitted maximal effect.

For CC(C)C(=O)Nc1cccc(C(=O)NCc2ccc(S(N)(=O)=O)cc2)c1 the results were SmPrx2 inh >57 and Anthrax LT inh 2%.
O=C1C(C=NCCCN2CCCC2=O)=C(O)c2ccccc21 was read as SmPrx2 inh >57 and Anthrax LT inh -12%.
For CC(C)(C)n1nnnc1C(c1cccc(C#N)c1)N1CCC(Cc2ccccc2)CC1 (centres undefined) the results were SmPrx2 inh >57 and Anthrax LT inh -8%.
COC(=O)CCC(=O)N1CCc2cc(S(=O)(=O)N3CCc4ccccc43)ccc21 was read as SmPrx2 inh >57 and Anthrax LT inh -4%.
For COc1cc(OC)cc(C(=O)Nc2cccc(NC(C)=O)c2)c1 the results were SmPrx2 inh >57 and Anthrax LT inh 2%.
c1ccc(Nc2nc(-c3ccncc3)cs2)nc1 was read as SmPrx2 inh >57 and Anthrax LT inh -4%.
Cc1ccc(S(=O)(=O)C2(C(=O)NCc3ccc4c(c3)OCO4)CC2)cc1 was read as SmPrx2 inh >57 and Anthrax LT inh 1%.
`COCCn1nnnc1CN(Cc1cccnc1)Cc1cc2cc(OC)ccc2[nH]c1=O` gave SmPrx2 inh >57 and Anthrax LT inh inconclusive.
CCCC(=O)Nc1nnc(COC)s1 was read as Anthrax LT inh 8%.
CN1CCN(CCN2CCn3c2nc2ccccc23)CC1 was read as SmPrx2 inh >57 and Anthrax LT inh -20%.
`CN(CCc1ccccn1)S(=O)(=O)c1ccccc1F` gave SmPrx2 inh >57 and Anthrax LT inh 4%.
For COc1ccccc1-c1cc(C2CC2)nc(N)c1C#N the results were Anthrax LT inh -22%.
`COC(=O)c1nc2n(n1)C(c1cccc(Cl)c1)C1=C(CC(C)(C)CC1=O)N2` (centres undefined) gave SmPrx2 inh >57 and Anthrax LT inh 5%.
For COC(=O)c1ccccc1NC(=O)Nc1cnccn1 the results were SmPrx2 inh >57 and Anthrax LT inh -5%.
For COC(=O)c1ccc(C(/C=C/[C@@H](C)C(=O)NCc2ccccc2)NC(=O)OCc2ccccc2)cc1 (some centres undefined) the results were Anthrax LT inh 4%.
Screening CCN(CC)S(=O)(=O)c1cccc(C(=O)N2CCCCC2)c1 returned SmPrx2 inh >57 and Anthrax LT inh -7%.
For Cc1nn(CC(=O)Nc2ccccn2)c(=O)c2ccccc12 the results were SmPrx2 inh >57 and Anthrax LT inh 10%.
`O=c1cc(CO)oc(CN2CCC(Cc3ccccc3)CC2)c1O` gave SmPrx2 inh >57.
Screening O=c1ccn([C@@H]2O[C@@H](COP(=O)(O)OP(=O)(O)O)[C@H](O)[C@@H]2O)c(=O)[nH]1 returned SmPrx2 inh >57 and Anthrax LT inh -12%.
For CSc1cccc(NC(=O)CN(C)S(=O)(=O)c2ccc(F)cc2)c1 the results were SmPrx2 inh >57 and Anthrax LT inh inconclusive.
COc1ccc(CN2CCN(C(=O)c3cccs3)CC2)cc1Br was read as Anthrax LT inh -17%.
CC(CN1CCCC(C(N)=O)C1)c1ccccc1 (centres undefined) was read as SmPrx2 inh >57 and Anthrax LT inh -15%.
Screening c1ccc(/N=C2\N=C(Nc3ccccn3)c3ccccc32)nc1 returned SmPrx2 inh >57 and Anthrax LT inh -4%.
Screening O=C(O)c1cccc(CSc2nnc(Cc3ccccc3)o2)c1 returned SmPrx2 inh >57 and Anthrax LT inh -5%.
CC(=O)C1(O)C(C)CC2C3CCC4CC(O)CCC4(C)C3=CCC21C (centres undefined) was read as Anthrax LT inh -9%.
Screening CO[C@@H]1COC(=O)[C@@H](C)NC(=O)C/C=C\[C@@H](C)[C@H](NS(=O)(=O)c2ccc(C)cc2)COC(=O)[C@H](C)NC(=O)C/C=C\[C@H]1C returned Anthrax LT inh -3%[8 µM].
`Cc1ccc(NS(=O)(=O)c2cc(C(=O)O)ccc2Cl)cc1` gave SmPrx2 inh >57 and Anthrax LT inh 0%.
`CCCc1cc(=O)[nH]c(SCC(=O)OCc2ccccc2)n1` gave Anthrax LT inh 1%.
`Cc1c(Br)c(C(F)(F)F)nn1CC(=O)N1CCCC1` gave Anthrax LT inh 4%.
For O=C(O)C1C2C=CC(C2)C1C(=O)NC1CCN(Cc2ccccc2)CC1 (centres undefined) the results were SmPrx2 inh >57 and Anthrax LT inh -20%.
`O=C(Cn1cc2c(n1)CCCC2)NCCCN1CCCC1` gave SmPrx2 inh >57 and Anthrax LT inh -4%.
`COC(=O)c1cc(-c2c(C)oc3cc(OC)ccc3c2=O)c(C)o1` gave SmPrx2 inh >57 and Anthrax LT inh 30%.
For Cc1cc(C)nc(SCc2nnc(SCC(=O)Nc3ccc(C)c(C)c3)o2)n1 the results were SmPrx2 inh >57 and Anthrax LT inh -3%.
`COc1ccc2[nH]cc(CCNc3ccnc(-c4cccc(C#N)c4)n3)c2c1` gave SmPrx2 inh >57 and Anthrax LT inh inconclusive.
COC(=O)c1sc2nc(CN3CCOCC3)nc(N3CCOCC3)c2c1C was read as SmPrx2 inh >57 and Anthrax LT inh 2%.
Screening N#Cc1ccc(CN2CCCC3(CCN(C(=O)c4cnccn4)CC3)C2)cc1 returned SmPrx2 inh >57 and Anthrax LT inh 9%.
CC(=O)N1CCN=C1SCc1ccc(F)cc1 was read as SmPrx2 inh >57 and Anthrax LT inh 4%.
`COc1ccc(N(CC(=O)NCc2cccs2)S(=O)(=O)c2c(C)n[nH]c2C)cc1` gave SmPrx2 inh >57 and Anthrax LT inh 2%.
For COc1ccccc1NC1SC(=O)N(c2ccccc2)C1=O (centres undefined) the results were SmPrx2 inh >57 and Anthrax LT inh -17%.
CCOC(=O)N1CCN(C(=O)COc2ccc(S(=O)(=O)NC3CCCCC3)cc2C)CC1 was read as SmPrx2 inh >57 and Anthrax LT inh -5%.
Screening CC(C)C[C@@H](NC(=O)OCC1c2ccccc2-c2ccccc21)C(=O)O returned SmPrx2 inh >57 and Anthrax LT inh 1%.
`C[C@H](C(=O)O)c1cccc(Oc2ccccc2)c1` gave SmPrx2 inh >57 and Anthrax LT inh 1%[3.58 µM].
Screening COc1ccc(N2C(=O)CCC(C(=O)NCc3ccccn3)C2c2ccc(OC)c(OC)c2)cc1 (centres undefined) returned SmPrx2 inh >57 and Anthrax LT inh inconclusive.
For Cc1ccc(-c2noc(-c3ccccc3C(=O)NCC3CCCO3)n2)cc1 (centres undefined) the results were SmPrx2 inh >57 and Anthrax LT inh 5%.
Screening CC(C)(C)OC(=O)N[C@@H](Cc1ccccc1)c1nnc(S(=O)(=O)Cc2ccccc2)o1 returned Anthrax LT inh 7.9µM*.
`COc1ccccc1NC(=O)CN1CCN(CC(=O)Nc2ccc(Cl)c(C(F)(F)F)c2)CC1` gave SmPrx2 inh >57 and Anthrax LT inh -36%.
Screening C1CCN=C(Nc2nn[nH]n2)CC1 returned SmPrx2 inh >57 and Anthrax LT inh 9%.
Screening Cn1c(=O)c2[nH]c(CCNC(=O)c3ccccc3)nc2n(C)c1=O returned SmPrx2 inh >57 and Anthrax LT inh -8%[8 µM].

As a short view, some entries already given:
For CC(C)C(=O)Nc1cccc(C(=O)NCc2ccc(S(N)(=O)=O)cc2)c1 the results were SmPrx2 inh >57 and Anthrax LT inh 2%.
O=C1C(C=NCCCN2CCCC2=O)=C(O)c2ccccc21 was read as SmPrx2 inh >57 and Anthrax LT inh -12%.
For CC(C)(C)n1nnnc1C(c1cccc(C#N)c1)N1CCC(Cc2ccccc2)CC1 (centres undefined) the results were SmPrx2 inh >57 and Anthrax LT inh -8%.
COC(=O)CCC(=O)N1CCc2cc(S(=O)(=O)N3CCc4ccccc43)ccc21 was read as SmPrx2 inh >57 and Anthrax LT inh -4%.
For COc1cc(OC)cc(C(=O)Nc2cccc(NC(C)=O)c2)c1 the results were SmPrx2 inh >57 and Anthrax LT inh 2%.
c1ccc(Nc2nc(-c3ccncc3)cs2)nc1 was read as SmPrx2 inh >57 and Anthrax LT inh -4%.

The results go on.
Screening COc1ccc(NC(=O)CCCCC#Cc2ccccc2)cc1 returned SmPrx2 inh >57 and Anthrax LT inh -19%.
`COC(=O)[C@@]1(Cc2ccc(OC)cc2)[C@H]2c3cc(C(=O)N(C)C)n(C)c3C[C@H]2CN1C(=O)c1ccccc1` gave SmPrx2 inh >57 and Anthrax LT inh 5%.
O=C(O)CCCNC(=O)OCc1ccccc1 was read as SmPrx2 inh >57.
For COc1ccc2c(c1)N1CCN=C1N2C the results were SmPrx2 inh >57 and Anthrax LT inh -8%.
Screening Cc1nn2c(-c3ccncc3)nnc2c2ccccc12 returned SmPrx2 inh >57 and Anthrax LT inh -7%.
Screening O=C(Cn1cnc2ccccc2c1=O)Nc1ccc(-c2nnc3n2CCCCC3)cc1 returned SmPrx2 inh >57 and Anthrax LT inh 4%.
`CCOc1ccc(S(=O)(=O)N(C)c2ccc(OCC(=O)Nc3ccc4[nH]c(=O)[nH]c4c3)cc2)cc1` gave SmPrx2 inh >57 and Anthrax LT inh -9%.
For CCCCCP(=O)(O)c1ccccc1 the results were Anthrax LT inh 6%.
`CCN(CCNC(=O)Nc1ccc(Cl)cc1)c1ccccc1` gave SmPrx2 inh >57 and Anthrax LT inh inconclusive.
For CCn1c(=O)cc(OCC(=O)NCc2ccc(C)o2)c2ccccc21 the results were SmPrx2 inh >57 and Anthrax LT inh 4%.
For CC1Cc2nc(SCC(=O)Nc3ccc4c(c3)OCO4)n(Cc3ccccc3)c(=O)c2S1 (centres undefined) the results were SmPrx2 inh >57 and Anthrax LT inh 1%.
`COC(=O)c1cc(-c2ccc(OC)c(OC)c2)on1` gave SmPrx2 inh >57 and Anthrax LT inh -2%.
`CCOC(=O)C1CCN(Cc2ccc(OC)c(C)c2OC)CC1` gave SmPrx2 inh >57 and Anthrax LT inh -15%.
O=C(CCCOc1ccc(Cl)cc1)Nc1nncs1 was read as SmPrx2 inh >57 and Anthrax LT inh -14%.
Screening CCOC(=O)C1=C(C)N=c2s/c(=C3\C(=O)Nc4ccccc43)c(=O)n2C1c1ccc2c(c1)OCO2 (centres undefined) returned SmPrx2 inh >57 and Anthrax LT inh inconclusive.
`CS(=O)(=O)N1CCC(C(=O)Nc2ccc(Oc3ccccc3)cc2)CC1` gave SmPrx2 inh >57 and Anthrax LT inh -22%.
`O=C(O)c1sccc1S(=O)(=O)Nc1ccc(Cl)cc1` gave Anthrax LT inh -2%.
For COc1cc2c(cc1OC)C1=C(C#N)CN(C3CCCCC3)CN1CC2 the results were SmPrx2 inh >57 and Anthrax LT inh inconclusive.
Screening Cc1ccc(NC(=O)CS(=O)CC(=O)N(C2CCCC2)C(C)C(=O)NC2CCCCC2)cc1 (centres undefined) returned SmPrx2 inh >57 and Anthrax LT inh inconclusive.
`CCC(=O)NC1(C(F)(F)F)C(=O)NC(C)=C1C#N` (centres undefined) gave SmPrx2 inh >57 and Anthrax LT inh -20%.
`CC1CCC(n2c(=S)[nH]c3ccccc3c2=O)CC1` (centres undefined) gave Anthrax LT inh inconclusive.
Screening CSc1cc(C)nc(NC(C)=O)n1 returned SmPrx2 inh >57 and Anthrax LT inh 8%.
Screening COc1ccc(-c2[nH]nc3c2C(c2ccccc2OC(=O)N2CCOCC2)C(C#N)=C(N)O3)cc1 (centres undefined) returned SmPrx2 inh >57 and Anthrax LT inh 2%.
CCOc1ccc(N(CC(=O)Nc2ccc(C)cc2)S(=O)(=O)c2c(C)noc2C)cc1 was read as SmPrx2 inh >57 and Anthrax LT inh inconclusive.
O=C(CSc1nncc2ccccc12)N1CCOCC1 was read as SmPrx2 inh >57 and Anthrax LT inh inconclusive.
`Cc1nc(N2CCN(C(=O)c3ccco3)CC2)c2oc3ccccc3c2n1` gave SmPrx2 inh >57 and Anthrax LT inh -9%.
c1cc(-c2nc3cc(Cc4ccc5oc(-c6ccncc6)nc5c4)ccc3o2)ccn1 was read as SmPrx2 inh >57 and Anthrax LT inh -10%.
For Cc1cc(C)cc(NC(=O)CSc2nnc(Cc3cccn3C)n2-c2ccc(F)cc2)c1 the results were SmPrx2 inh >57 and Anthrax LT inh inconclusive.
CS(=O)(=O)N1CCC[C@@]2(CCN(C(=O)Nc3ccccc3)C2)C1 was read as SmPrx2 inh >57 and Anthrax LT inh 4%.
`COC(=O)c1ccc(C(=O)OC)c(NC(=O)Nc2ccc3c(c2)OCO3)c1` gave SmPrx2 inh >57 and Anthrax LT inh 6%.
Screening CN1CCN(C(=O)C2CC(c3c(F)cccc3Cl)=NO2)CC1 (centres undefined) returned SmPrx2 inh >57 and Anthrax LT inh 8%.
`O=C(c1csnn1)N1CCC[C@@]2(CCN(Cc3cc(C(F)(F)F)cc(C(F)(F)F)c3)C2)C1` gave Anthrax LT inh -16%.
`COc1ccc(C)cc1S(=O)(=O)Nc1ccccc1C` gave SmPrx2 inh >57 and Anthrax LT inh 7%.
For O=C(O)CSCC(=O)NCc1ccccc1 the results were SmPrx2 inh >57 and Anthrax LT inh inconclusive.
CCOc1ccc(-n2cnnn2)cc1S(=O)(=O)N1CCCCC1 was read as SmPrx2 inh >57 and Anthrax LT inh 1%.
For O=C1c2ccc(Oc3ccc4c(c3)C(=O)N(CCCCO)C4=O)cc2C(=O)N1CCCCO the results were SmPrx2 inh >57 and Anthrax LT inh 0%.
COc1ccc(Cl)cc1C(=O)CSc1nc(N)cc(N)n1 was read as SmPrx2 inh >57 and Anthrax LT inh -17%.

Retrieved one by one from the list above:
`COC(=O)c1nc2n(n1)C(c1cccc(Cl)c1)C1=C(CC(C)(C)CC1=O)N2` (centres undefined) gave SmPrx2 inh >57 and Anthrax LT inh 5%.
For CC(C)(C)n1nnnc1C(c1cccc(C#N)c1)N1CCC(Cc2ccccc2)CC1 (centres undefined) the results were SmPrx2 inh >57 and Anthrax LT inh -8%.

Not all compounds are listed (hit frequency here may not be typical).
